MenB inh: M. tuberculosis MenB inhibitors, primary screen, biochemical, absorbance; 1,4-dihydroxy-2-naphthoyl-CoA synthase (Mycobacterium tuberculosis (strain ATCC 25618 / …; MenB enzyme assay, absorbance read-out; some hits fall short of the stated cut; inhibition, %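 (about 12 µg/mL by stock and volumes)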; 100,000 compounds, 0.43% hits; AID 540299, 2011;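 active means mean of two replicates above 30%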;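 further: 0% = no compound and 100% = wells with inactive enzyme; the first replicate is given; strong numbers were not always called active; inactives centre near -10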
Target sequence (P9WNP5 whole entry, looked up): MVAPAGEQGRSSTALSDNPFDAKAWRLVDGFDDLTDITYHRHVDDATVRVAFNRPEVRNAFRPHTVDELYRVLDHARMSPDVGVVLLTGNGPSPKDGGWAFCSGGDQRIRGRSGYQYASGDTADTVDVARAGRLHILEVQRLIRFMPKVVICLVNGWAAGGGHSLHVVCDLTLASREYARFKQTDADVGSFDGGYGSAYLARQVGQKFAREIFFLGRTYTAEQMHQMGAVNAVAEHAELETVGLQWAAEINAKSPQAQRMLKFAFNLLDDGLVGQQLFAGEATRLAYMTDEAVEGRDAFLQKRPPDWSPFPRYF
PV pol inh: poliovirus RdRp elongation inhibitors, primary screen, biochemical, fluorescence polarization, total intensity; % elongation, % (compound at 16.7 µg/mL); poliovirus polymerase elongation; hits give low values; 150,000 compounds, 0.66% hits; in the data active means % elongation below about 90%; further: some results filed as inactive read as strong as hits
MbtI inh: MbtI salicylate synthase inhibitors, primary screen, biochemical, fluorescence intensity; purified MbtI enzyme, fluorescence intensity read-out; inhibition, %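 (about 17 µg/mL by stock and volumes)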; 100,000 compounds, 0.89% hits; AID 493033, 2011;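 active means above 50% in both replicates, above 80% if mildly self-fluorescent; inactive means the rest, strongly fluorescent compounds included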;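 further: 0% = mean of negative and 100% = mean of positive controls; one replicate is shown; some compounds called inactive have numbers as strong as hits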
Target sequence (P9WFX0 whole entry, looked up): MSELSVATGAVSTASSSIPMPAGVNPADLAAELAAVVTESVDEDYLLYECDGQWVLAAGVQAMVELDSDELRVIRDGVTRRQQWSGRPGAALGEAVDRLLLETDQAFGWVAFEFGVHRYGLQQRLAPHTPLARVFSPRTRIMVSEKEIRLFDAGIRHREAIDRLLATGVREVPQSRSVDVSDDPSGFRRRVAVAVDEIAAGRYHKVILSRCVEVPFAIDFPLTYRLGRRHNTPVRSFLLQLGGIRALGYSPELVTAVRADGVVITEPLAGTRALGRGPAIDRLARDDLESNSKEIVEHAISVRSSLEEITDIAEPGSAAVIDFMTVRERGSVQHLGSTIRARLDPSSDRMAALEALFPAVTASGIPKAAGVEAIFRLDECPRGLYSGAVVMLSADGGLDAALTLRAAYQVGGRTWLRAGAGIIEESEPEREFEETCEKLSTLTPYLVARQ
PV pol inh intensity: further read-out of PV pol inh, marked with its call; % elongation; measured here: total intensity read-out; formula for this scale not given here;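 total fluorescence in place of polarization; lower means less elongation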
Starred values were filed as active, the others as inactive; i = inactive; x = not tested or not shown; & = joins results of further samples. The order is random; any-hit rate near 1.7%.

SMILES	MenB inh	PV pol inh	PV pol inh intensity	MbtI inh
CC1(C)Cc2c(c(N3CCOCC3)[nH]c(=S)c2C#N)CS1	-31	109	104	x
Cc1cc(=S)[nH]c2cc(Br)ccc12	-38	100	106	91
O=C(CSc1nn(-c2ccc(F)cc2)c(=S)s1)NC1CC1	-22	106	102	-19
CNC(=O)C1CCCN1S(=O)(=O)c1ccc(OC)cc1 (configuration not stated)	-12	103	101	-12
Clc1c(-c2nnc3n2CCC3)sc2ccccc12	x	102	106	2
CCOC(=O)C1=C(c2ccccc2)NC(SCC(N)=O)=C(C#N)C1c1ccco1 (configuration not stated)	-14	102	104	5
CCCCc1nnc(SCC(=O)Nc2nccs2)n1CC	2	101	102	-4
Cc1c(C(=O)OC2CCCC2)[nH]c2c1C(=O)CCC2	-13	102	104	-2
O=C(NC1CC1)C1CCN(c2cnccn2)CC1	-8	103	103	-10
Cc1cc(C(=O)COC(=O)Cc2ccsc2)c(C)n1NC(=O)c1ccccc1	2	100	104	-10
O=C1NC(=O)/C(=C\c2cn(Cc3ccccc3F)c3ccccc23)N1	-65	99	103	-12
Cc1oc2cc(OC(C)C)ccc2c(=O)c1-c1ccccc1	-17	100	103	-15
Cc1[nH]c2ccccc2c1C=Nc1ccc(Cl)cc1C(=O)c1ccccc1	-26	103	115	x
CC1=C(C(=O)N2CCOCC2)C(c2ccccc2)NC(=O)N1 (configuration not stated)	-23	106	108	-8
CCOC(=O)c1ccc(Nc2ccc(-c3ccc(OC)c(OC)c3)nn2)cc1	-103	105	101	-50
NNC(=O)CNC(=O)C1COc2ccccc2O1 (configuration not stated)	4	104	104	0
Cc1ccc2oc(-c3ccccc3)c(CN3CCOCC3)c(=O)c2c1	-10	101	103	3
COc1ccc(NC(=O)c2cc(-c3cccs3)nc3ccccc23)cc1	-19	106	107	x
CC(C)Cn1cc(C(=O)NCc2cccnc2)c2c3ccccc3n(C)c2c1=O	1	100	104	102
Cc1cccc2sc(N)nc12	0	98	106	4
O=C(CCCn1c(=O)c2cccn2c2ccccc21)N1CCCCC1	-8	102	110	28
CCSc1ccc(NC(=O)CC2c3ccccc3Oc3ccccc32)cc1	-22	104	107	2
COc1ccc(-n2nc(C(=O)N3CCC(C)CC3)c3c4ccccc4n(C)c3c2=O)cc1	-25	100	99	5
CN(C(=O)Cc1cccc2ccccc12)C(C)(C)C#N	-7	x	x	-6

Compound profiles, as listed above:
O=C(NC1CC1)C1CCN(c2cnccn2)CC1 is entered as MenB inh: -8; PV pol inh: 103; PV pol inh intensity: 103; MbtI inh: -10
NNC(=O)CNC(=O)C1COc2ccccc2O1 (configuration not stated) is entered as MenB inh: 4; PV pol inh: 104; PV pol inh intensity: 104; MbtI inh: 0

More structures
SMILES	MenB inh	PV pol inh	PV pol inh intensity	MbtI inh
O=c1ccc2cc3c(-c4ccc(F)cc4)coc3cc2o1	-36	103	106	1
CCCC(C)C(=O)Nc1ccc(F)cc1 (configuration not stated)	-17	102	101	28
Cc1ccc(-c2nnn(CC(=O)N3CCCC3c3ccc4c(c3)OCCCO4)n2)cc1 (configuration not stated)	-15	105	102	-6
O=C(CSc1nnc(COc2ccccc2)o1)NCCc1ccccc1	2	101	103	-2
Cc1ccc(S(=O)(=O)N2CCCC(c3nc4c(nnn4Cc4ccc5c(c4)OCCO5)c(=O)[nH]3)C2)cc1 (configuration not stated)	5	100	104	11
Cc1ccc(-n2c(-c3ccccc3)csc2=NC(=O)c2ccccc2)cc1	-5	107	105	3
CN(C)c1ccc(-c2nc3ccccc3o2)cc1	-23	100	105	i
Cc1ccc(CNC(=O)CN2CCOc3ccccc32)cc1	10	100	103	6
O=C1C(=Nc2cccnc2)c2ccccc2N1CN1CCOCC1	-26	101	104	6
CN(C)c1ccc(/C=C(\C#N)C(=O)OCc2ncc(-c3ccccc3)o2)cc1	-40	45	241	20
CC1=CC(=C2C(=O)NC(=O)NC2=O)C=C(C(F)(F)F)N1Cc1ccco1	-14	99	103	-2
Cc1ccccc1NC(=O)N1CC(C)CC(C)C1 (configuration not stated)	1	104	107	-3

Just MbtI inh, for some of the entries so far:
smiles	MbtI inh
CCOC(=O)C1=C(c2ccccc2)NC(SCC(N)=O)=C(C#N)C1c1ccco1 (configuration not stated)	5
CCCCc1nnc(SCC(=O)Nc2nccs2)n1CC	-4
Cc1c(C(=O)OC2CCCC2)[nH]c2c1C(=O)CCC2	-2
O=C(NC1CC1)C1CCN(c2cnccn2)CC1	-10
Cc1cc(C(=O)COC(=O)Cc2ccsc2)c(C)n1NC(=O)c1ccccc1	-10

Following part.
SMILES	MenB inh	PV pol inh	PV pol inh intensity	MbtI inh
C[C@]12C=CC(=O)C=C1CCC1C2[C@@H](O)C[C@@]2(C)C1CC[C@]2(O)C(=O)CO (some centres not stated)	-1	100	101	-27
CCc1nonc1NC(=O)c1ccc(C)cc1	-9	100	101	-8
COc1cccc(-c2nc(CN3CCN(c4ccccc4OC)CC3)cs2)c1	-18	106	108	11
CNC(=O)C1CCN(S(=O)(=O)c2ccc3c(c2)nc(C)n3C2CCCC2)CC1	-7	102	105	-1
Oc1c(Br)cc(Br)c2cccnc12	4	99	100	-31
CCOC(=O)c1cc(S(=O)(=O)NCC2CCCO2)cn1C (configuration not stated)	-20	106	107	-8
Cc1cc(C)n2nc(Nc3ccccc3)cc2n1	x	98	96	-3
CC(C)NC(=S)N/N=C/c1ccccc1C(=O)O	-27	108	97	51
Cc1cccc(-n2c(CCN3C(=O)c4ccccc4C3=O)nc3ccccc3c2=O)n1	-16	103	104	-10
COc1ccc(-c2nc(COc3ccccc3Cl)nc(SC)c2C#N)cc1	-12	108	116	-5
CCOC(=O)N1CCC(=NNC(=S)Nc2c(C)cccc2C)CC1	-38	98	102	4
CCc1ccc(Oc2coc3cc(O)ccc3c2=O)cc1	0	104	100	25
CC(C)CCC1CC(C)(C(C)O)OC1=O (configuration not stated)	-48	106	102	-9
Cn1cccc1C(=O)OCC(=O)c1c[nH]c2ccccc12	-29	104	109	-41
COC(=O)C1=CN(Cc2cccs2)C=C(C(=O)OC)C1c1cccc(OC)c1	-64	104	107	i
CN(c1ccccc1)S(=O)(=O)c1ccc2c(c1)CCN2S(C)(=O)=O	-7	99	101	-2
COc1cc(-c2noc(-c3c(-c4ccccc4Cl)noc3C)n2)cc(OC)c1OC	-8	103	108	-10
CN(CC(=O)N1CCc2ccccc21)S(=O)(=O)c1ccc(-c2ccc(=O)[nH]n2)s1	-34	102	104	-13
COc1ccc(-c2oc3ncn4nc(-c5ccccc5)nc4c3c2-c2ccc(OC)cc2)cc1	12	102	102	-8
CC1(C)CC(=O)C2=C(C1)Nc1ccccc1N(C(=O)C1CC1)C2c1cccs1 (configuration not stated)	-4	109	112	x
O=C(CSCc1cnn(-c2ccccc2)c1-n1cccc1)NCc1ccccn1	-2	102	100	4
CCSC1(SCC)N=C(N)C2(C#N)C(c3ccc(F)cc3)C12C#N (configuration not stated)	-18	101	103	26
O=C1COc2ccccc2CN1c1ccc(Cl)cc1	-8	111	110	x
COC(=O)C(C#N)c1nc2ccccc2nc1N1CCN(c2ccc(F)cc2)CC1 (configuration not stated)	-20	80	143	8

An excerpt of these results, with each value named.
Cn1cccc1C(=O)OCC(=O)c1c[nH]c2ccccc12
  MenB inh: -29	PV pol inh: 104	PV pol inh intensity: 109	MbtI inh: -41
COC(=O)C1=CN(Cc2cccs2)C=C(C(=O)OC)C1c1cccc(OC)c1
  MenB inh: -64	PV pol inh: 104	PV pol inh intensity: 107	MbtI inh: i
CN(c1ccccc1)S(=O)(=O)c1ccc2c(c1)CCN2S(C)(=O)=O
  MenB inh: -7	PV pol inh: 99	PV pol inh intensity: 101	MbtI inh: -2
COc1cc(-c2noc(-c3c(-c4ccccc4Cl)noc3C)n2)cc(OC)c1OC
  MenB inh: -8	PV pol inh: 103	PV pol inh intensity: 108	MbtI inh: -10

(list continues)
SMILES	MenB inh	PV pol inh	PV pol inh intensity	MbtI inh
O=C(Nc1ccc(S(=O)(=O)Nc2cccc(C(F)(F)F)c2)cc1)c1ccco1	-25	100	98	2
O=C1N/C(=C\c2ccc(O)cc2)C(=O)c2ccccc21	-123	99	100	-26
N#CC(C(=O)CCN1C(=O)C2CC=CCC2C1=O)c1nc2ccccc2[nH]1 (configuration not stated)	11	102	111	25
O=C(C1CC1)N1CCc2cc(Br)cc(S(=O)(=O)NC3CCCC3)c21	-23	100	103	-6
CCc1ccc(CNC(=O)C2CCN(c3nc4ccccc4o3)CC2)cc1	-14	103	104	0
CC(Oc1ccccc1)C(=O)NC1CCSc2ccccc21 (configuration not stated)	-5	105	107	-4
CN(Cc1ccco1)C(=O)CNC(=O)c1ccc(Oc2ccccc2)cc1	5	104	101	-4
CCN(CC)S(=O)(=O)c1ccc(=O)n(CC(=O)c2ccc[nH]2)c1	-34	105	105	3
Cc1ccc(S(=O)(=O)N(C/C=C/c2ccccc2)C(=O)N2CCN(C)CC2)cc1	7	100	99	-4
CC1CCc2c(sc(N)c2C(N)=O)C1 (configuration not stated)	-14	102	103	-61
O=c1oc(-c2cccs2)nn1CN1CCCC2CCCCC21 (configuration not stated)	-8	107	99	109
CC(=NCCCN1CCOCC1)c1c(C)[nH]n(-c2ccc(F)cc2)c1=O	-16	101	97	-3
O=C(NN1S(=O)(=O)c2ccccc2S1(=O)=O)c1ccc(Br)cc1	-19	98	105	-4
CC1=CC(=C2C(=O)c3ccccc3C2=O)C=C(C)O1	-40	103	103	1
Cn1c(=O)n(C)c2ccccc21	-19	99	100	13
CC1CCCN(C(=O)C2CC(=O)N(C3CCCCC3)C2)C1 (configuration not stated)	-11	101	100	-23
CC(C)[C@H](NC(=O)COc1ccc(C#N)cc1)c1nc2ccccc2[nH]1	-7	104	105	-7
CC1CC(C)(C)NC(=S)N1CCC(=O)Nc1ccc(F)c(F)c1 (configuration not stated)	-17	101	103	10
O=C(Nc1ccc(S(=O)(=O)C(F)F)cc1)c1cccnc1N1CCCC1	2	x	x	2
O=C(Nc1ccc(F)cc1)Oc1ccccc1N1CCOCC1	1	100	102	9
CCS(=O)(=O)C1=NSC2=NC(=O)/C(=C\c3ccc(OCc4ccc(C)cc4)c(OC)c3)C(=N)N21	1	102	113	-5
O=c1ccc(C2CCN(S(=O)(=O)c3ccc(F)cc3)CC2)nn1-c1ccccc1	-6	98	96	-12
CC1CC(C)CN(C(=O)CC2Oc3ccccc3NC2=O)C1 (configuration not stated)	4	100	100	12
CC(O)/C=C/c1cccc[n+]1C (configuration not stated)	0	110	108	7
O=S(=O)(NCC1CCCO1)c1ccc(-c2cc(C(F)(F)F)no2)s1 (configuration not stated)	-35	101	105	-7
O=C(CCN1C(=O)c2ccccc2S1(=O)=O)Nc1ccccc1	-16	106	88	13
COc1ccc(C(=O)Nc2ccc(Oc3ncnc4cc(Cl)ccc34)nc2)cc1	8	108	111	-12
Cc1cc(NS(=O)(=O)c2ccc(N)cc2)no1	-1&11	100&100	102&97	10&-6
Cc1cc2nnc(-c3cccc4c3OCO4)n2c2ccccc12	-48	120	126	x
CC(C)(C)c1ccc(NC(=O)C2CCCC2)cc1	-19	104	97	1
O=C(Nc1ccccc1N1CCOCC1)C1(c2ccccc2)CC1	-10	103	108	-6
C/C(=N\N1C(=O)CC(=O)NC1=S)c1ccc(Cl)cc1	-47	103	109	x
CN1CCNC(c2ccccc2)C1 (configuration not stated)	-12	102	102	-15
O=C(O)c1ccccc1Sc1ccccc1S(=O)(=O)NC1CCCCC1	-3	102	107	1
CCC(=O)C12CC3CC(CC(C3)C1)C2	-2	100	105	-2
CN1CCN(C2CC3(C)C(CCC4C3CCC3(C)C(O)C(N5CCN(C)CC5)CC43)CC2O)CC1 (configuration not stated)	11	101	102	-20
CN1CCN(C2=Nc3c(Cl)cc(Cl)c4cccc2c34)CC1	-29	57	242	6
C=CCNC(=O)c1c(O)nc2ccccn2c1=O	-34	101	98	44
O=C(CCc1nnc2ccc(N3CCCC3)nn12)Nc1cccnc1	1	100	104	8
O=C(NCCC1=CCCCC1)C1CCN(C(=O)c2cc3sccc3n2Cc2ccc(F)cc2)CC1	-6	103	107	-6
CC(=O)N1CCN(Cc2csc(Nc3ccccc3)n2)CC1	3	98	99	8
CCCn1c(C)cc(C(=O)Cn2ncc(Cl)c(Cl)c2=O)c1C	-28	115	115	-5
CCC(C(=O)NCc1ccccn1)c1ccccc1 (configuration not stated)	-8	101	106	x
Cc1cc2ccccc2n1CCNC(=O)C1(c2ccc(Cl)cc2)CCCC1	-30	100	106	8
COC(=O)c1cc(Cn2nc(C(=O)O)c3ccccc3c2=O)oc1C	-26	103	103	-8
C=CCNC(=O)Nc1ccc(OCC)cc1	-21	103	101	-12
Cc1cccc(C(=O)c2c(N3CCOCC3)[nH]c(=O)c3ccccc23)c1	-25	68*	69*	0
CCN(CC)S(=O)(=O)c1ccc(N2CC(C(=O)N3CCCc4ccccc43)CC2=O)cc1 (configuration not stated)	-29	102	109	-16
C=CCn1cc(C(=O)NC2CCCC2)c(=O)c2cc(S(=O)(=O)N(CC)CC)ccc21	6	103	100	-9
Cc1cc2nc3s/c(=C\c4ccc(C(C)C)cc4)c(=O)n3c2cc1C	0	102	107	-5
O=C(CSc1ccccc1C(=O)Nc1ccc(-n2cnnn2)cc1)NCc1ccco1	4	102	111	-43
O=C(c1ccccc1)c1ccc2c3c(cccc13)CC2	-9	103	105	-11
CCOC(=O)CN(C1=NS(=O)(=O)c2ccccc21)c1ccccc1	-31	98	94	x
CCOC(=O)/C=C1\SCC(=O)N1CCOc1ccccc1C#N	2	132	131	-5

Source: PubChem BioAssay (ICCB-Longwood Screening Facility, Harvard Medical School)
